# Screening results: PubChem, several laboratories
# Mtb growth: M. tuberculosis H37Rv growth inhibitors, H37Rv strain (AID 1626); M. tuberculosis H37Rv growth inhibition; higher % means a stronger effect; inhibition, % at 10 µM; hits with a dose series show IC50 in µM; 220,000 compounds, 0.95% hits;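 active = confirmed in a dose series; inconclusive = inhibition above 80% but not taken into the dose series; inactive = below 80% or under 30% at every dose of the series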;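 note: bacteria incubated seven days before Alamar blue readout; 0% = bacteria only wells and 100% = bacteria with antibiotic wells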
# RecA splice inh: Mtb RecA intein splicing inhibitors, primary screen, biochemical, fluorescence, HTS; Protein RecA (Mycobacterium tuberculosis (strain ATCC 25618 / H37Rv)), P9WHJ3; cell-free RecA intein splicing; inhibition, %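 (about 9 µM by stock and volumes)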; 290,000 compounds, 0.75% hits; in the data active = inhibition above about 30%; inconclusive = no clear call, values can overlap the other calls;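 note: 0% = vehicle wells and 100% = reference inhibitor control wells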
# Target sequence (P9WHJ3 whole entry, looked up, canonical isoform): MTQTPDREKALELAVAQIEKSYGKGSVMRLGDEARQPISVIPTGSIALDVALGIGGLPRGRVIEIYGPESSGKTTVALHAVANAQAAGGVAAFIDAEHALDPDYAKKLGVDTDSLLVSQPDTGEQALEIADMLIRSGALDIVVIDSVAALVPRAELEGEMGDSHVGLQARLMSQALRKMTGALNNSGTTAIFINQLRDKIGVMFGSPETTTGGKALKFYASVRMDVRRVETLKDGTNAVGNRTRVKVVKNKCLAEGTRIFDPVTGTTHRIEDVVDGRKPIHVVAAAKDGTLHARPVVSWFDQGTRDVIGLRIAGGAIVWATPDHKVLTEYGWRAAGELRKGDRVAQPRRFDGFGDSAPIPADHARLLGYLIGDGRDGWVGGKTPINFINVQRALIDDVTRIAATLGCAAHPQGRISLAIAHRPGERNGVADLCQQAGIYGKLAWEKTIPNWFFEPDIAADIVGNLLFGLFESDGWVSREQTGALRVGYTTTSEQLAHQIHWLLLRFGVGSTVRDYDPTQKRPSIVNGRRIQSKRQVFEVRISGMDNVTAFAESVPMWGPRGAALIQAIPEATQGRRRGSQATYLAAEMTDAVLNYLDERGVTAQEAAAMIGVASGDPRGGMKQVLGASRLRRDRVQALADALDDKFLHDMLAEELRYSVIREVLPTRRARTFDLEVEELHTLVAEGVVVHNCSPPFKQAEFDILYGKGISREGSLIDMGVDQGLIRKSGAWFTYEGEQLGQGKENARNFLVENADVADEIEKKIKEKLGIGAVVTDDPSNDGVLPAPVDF
# YopH inh: YopH tyrosine phosphatase inhibitors, primary screen, biochemical, fluorescence Ex485/Em525; 140,000 compounds, 0.16% hits; AID 898, 2007; inhibition, %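 (about 10 µM by stock and volumes)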;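 active = inhibition of 50% or more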;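 note: controls were vehicle for no effect and minimum signal wells for full effect; inactives centre near -20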
# Mtb betalactam: beta-lactam sensitization of Mtb H37Rv, H37Rv; M. tuberculosis H37Rv growth with meropenem, percent inhibition; hits of this screen are not shown here; inhibition, % at 25 µM; 330,000 compounds, 0.27% hits; AID 434955, 2010;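 active = about 74% or more and at least 40 points above the plate without the antibiotic, then above 30% in a dose series; inconclusive = first-round hits that could not be retested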;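 note: growth measured after seven days incubation then overnight dye step; 0% = bacteria only wells and 100% = bacteria with antibiotic; twin plates without the antibiotic show which effects depend on it; some results filed as inactive read as strong as hits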
# Arbovirus inh: antivirals against arbovirus infection, primary screen, cell-based, full library, 10K replicate subset; arbovirus infection cell-based antiviral screen; inhibition, % at 10 µM; 200,000 compounds, 0.37% hits;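 active = inhibition from about 30%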;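 note: bluetongue infection of BSR cells; cell survival read as ATP light after 72 h; 0% = infected wells without compound and 100% = uninfected wells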
# Arbovirus inh repeat: also measured in Arbovirus inh; calls as there; inhibition, %; measured here: 10K subset replicate screen; many hits read low in the repeat;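 first of two repeat runs on a subset; 0% = infected and 100% = uninfected wells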
# Starred values were filed as active, the others as inactive; ? = inconclusive; · = no result given. Not all compounds are listed. The share of hits here may be higher or lower than overall.
SMILES,Mtb growth,RecA splice inh,YopH inh,Mtb betalactam,Arbovirus inh,others
O=C(CSc1nc(-c2ccco2)cc(C(F)(F)F)n1)N1CCN(c2ccc(Cl)cc2)CC1,-4%,2.1,36,22,-3,
CC1CCN(CCCNC(=O)C2CCN(S(=O)(=O)N3CCCCC3)CC2)CC1,-7%,-2.1,-29,0,-1,
CC(NCC#Cc1ccccc1)C(O)c1ccccc1 (stereo not drawn),-1%,5.1,·,-4,5,
Cc1ccc(C)c(Cn2nnc3c(=O)[nH]c(C4CCN(S(=O)(=O)c5ccc(S(=O)(=O)NC6CC6)cc5)CC4)nc32)c1,·,-1.8,·,99,·,
Cc1ccc(NC(=O)Cn2nnc(C(=O)NCc3cccs3)c2N)c(C)c1,·,-1.9,·,4,·,
Cc1occc1-c1nnc(SCC(=O)N(C)C)o1,-10%,4.3,-8,-3,2,
CCOC(=O)C1(CCOc2ccccc2)CCN(Cc2ccncc2)CC1,-8%,-2.3,·,-8,-4,
COc1ccc(Cc2nnc(NC(=O)c3ccc(F)cc3)s2)cc1OC,·,1.0,·,2,·,
Cc1cccc(Sc2ccc([N+](=O)[O-])cn2)c1,-6%,0.3,-14,-4,-6,
N#Cc1nc(Cc2cccc3ccccc23)oc1NCc1ccc(F)cc1,4%,11,-43,-6,4,
CCN(CC)CC(=O)Nc1sc2c(c1C(=O)c1ccccc1OC)CCC2,-3%,5.1,·,-5,-31,
CC1=C(C(=O)Nc2cccnc2)C(c2ccccn2)n2nnnc2N1 (stereo not drawn),-8%,-2.5,-27,-6,4,
N#Cc1nc(-c2cccs2)oc1NCc1ccc2c(c1)OCO2,3%,16,-47,-2,1,
COc1ccc(-c2csc(Nc3ncccn3)n2)cc1C,·,0.7,·,-2,·,
COc1ccccc1N1CCN(CC(=O)NCCc2ccc(S(N)(=O)=O)cc2)CC1,-8%,-2.0,·,1,2,

# Looked up by compound from the entries so far, 4 records:
SMILES,Mtb growth,RecA splice inh,YopH inh,Mtb betalactam,Arbovirus inh,others
O=C(CSc1nc(-c2ccco2)cc(C(F)(F)F)n1)N1CCN(c2ccc(Cl)cc2)CC1,-4%,2.1,36,22,-3,
COc1ccc(Cc2nnc(NC(=O)c3ccc(F)cc3)s2)cc1OC,·,1.0,·,2,·,
COc1ccc(-c2csc(Nc3ncccn3)n2)cc1C,·,0.7,·,-2,·,
CC1=C(C(=O)Nc2cccnc2)C(c2ccccn2)n2nnnc2N1 (stereo not drawn),-8%,-2.5,-27,-6,4,

# (continued)
SMILES,Mtb growth,RecA splice inh,YopH inh,Mtb betalactam,Arbovirus inh,others
CC(C)(C)CN1CCNC(=O)C1CC(=O)N1CCN(c2ccccc2)CC1 (stereo not drawn),-3%,-4.8,·,-3,·,
C=CCn1c(SCC(=O)NC2CCCC2)nnc1-c1ccccn1,·,0.0,·,-9,·,
O=C(O)c1ccc(NCc2nc3ccccc3n2CCOc2ccccc2Cl)cc1,8%,1.7,·,3,-1,
COc1cc(OC)c(NC(=S)Nc2cc(Cl)cc(Cl)c2)cc1Cl,6%,0.4,-15,-1,8,
COCCN=c1scc(-c2cccs2)n1/N=C/c1ccc(O)c(O)c1O,-1%,17,-11,9,-14,
Cc1ccsc1/C=N/N1CCN(C2c3ccccc3-c3ccccc32)CC1,0%,-1.0,-6,4,-1,
Cc1ccc(Cl)c(OCC(=O)N(C)CC(=O)Nc2ccc(N3CCOCC3)cc2)c1,·,4.9,·,0,·,
Cc1ccc(CNC(=O)C2COc3ccccc3O2)cc1 (stereo not drawn),5%,2.3,·,12,-2,
Nc1nc(SCC(=O)c2cccs2)n[nH]1,-2%,·,·,-3,1,
Cc1[nH]n2c(=O)c3c(nc2c1-c1cccc2ccccc12)CCC3,-9%,3.6,-36,82,-24,
O=C1c2ccccc2NC2(CCCC2)N1N=C1CCCC1,0%,-1.8,·,4,1,
Cn1c(COc2ccc(Cl)cc2)nnc1SCC(=O)NC1CCCCC1,0%,-2.1,-11,-8,·,
Cc1ccc(SCCSc2ncccn2)cc1,·,-1.8,·,-2,·,
CC(C)C1Nc2ccc(S(=O)(=O)N3CCOCC3)cc2NC1=O (stereo not drawn),-3%,·,·,0,13,
CC(=O)Oc1cc(C)cc2oc(=O)cc(-c3ccccc3)c12,·,9.3,·,5,·,
CC(/C=C/C(=O)c1ccc(C)cc1)=C\c1ccccc1,·,0.4,-31,74,17,
COc1ccc(NC(=O)C(NS(=O)(=O)c2ccc3c(c2)CCCN3C(C)=O)C(C)C)c(OC)c1 (stereo not drawn),0%,2.8,-20,-1,1,
CCCCn1c(N)c(N(CC(C)C)C(=O)c2cccc(S(=O)(=O)N3CCN(C)CC3)c2)c(=O)[nH]c1=O,·,2.2,·,-7,·,
S=C(Nc1ccc2nsnc2c1)N1CCCCC1,9%,·,4,2,4,
COc1cc(C(=O)NCCN2C(=O)S/C(=C\c3ccc(F)cc3)C2=O)ccc1OCC(=O)N1CCOCC1,1%,0.1,·,2,·,
CC(OC(=O)CCCN=C1NS(=O)(=O)c2ccccc21)C(=O)NC1CCCCC1C (stereo not drawn),·,-1.6,·,-8,·,
O=C(CN1C(=O)CCS(=O)(=O)c2ccccc21)NCCc1ccccc1,·,0.5,·,5,·,
CCC(=O)Nc1nnc(C)s1,-7%,-2.2,-24,·,1,
COc1ccc(C(=O)Nc2ccccc2)cc1S(=O)(=O)Nc1cc(C)on1,-5%,1.7,-18,17,0,
Cc1ccc(S(=O)(=O)NCCOCCNS(=O)(=O)c2ccc(C)cc2)cc1,6%,-0.2,-49,4,-3,
CCOc1cc(/C=N/n2cnnc2)ccc1OS(=O)(=O)c1ccccc1,8%,0.5,·,5,0,
CCN(CC)S(=O)(=O)c1ccc2c(c1)CC(C(=O)N1CCCC1)N2C(C)=O (stereo not drawn),·,1.2,·,2,·,
COc1ccc(S(=O)(=O)Nc2ccc(NC(C)=O)cc2)cc1,4%,·,-4,7,6,
CCOc1ccccc1OCC(=O)Nc1cccc(S(=O)(=O)N2CCCCCC2)c1,·,1.2,·,-10,·,
O=C(c1ccco1)N1CCN(C(c2cccs2)c2sc3ncnn3c2O)CC1 (stereo not drawn),2%,0.2,-37,-6,1,

# Grouped by structure: those above with a cyano group.
SMILES,Mtb growth,RecA splice inh,YopH inh,Mtb betalactam,Arbovirus inh,others
N#Cc1nc(Cc2cccc3ccccc23)oc1NCc1ccc(F)cc1,4%,11,-43,-6,4,
N#Cc1nc(-c2cccs2)oc1NCc1ccc2c(c1)OCO2,3%,16,-47,-2,1,

# The results go on:
SMILES,Mtb growth,RecA splice inh,YopH inh,Mtb betalactam,Arbovirus inh,others
O=C(Cc1ccc(Cl)cc1Cl)OCC(=O)N1CCN(C(=O)c2ccco2)CC1,-3%,·,·,0,3,
COc1cccc(CNC(=O)COc2cccc3c2OC(C)(C)C3)c1,·,-2.8,·,-10,·,
O=c1cc(-c2c(F)c(F)c(F)c(F)c2F)oc2c(F)c(F)c(F)c(F)c12,?,86*,-26,100,-28,Arbovirus inh repeat=-22
COc1ccc(C(=O)c2no[n+]([O-])c2C(=O)c2ccc(OC)cc2)cc1,4%,4.2,-8,-6,15,
COCCN(C(=O)c1csnn1)C(C(=O)NC(C)(C)C)c1cccc(OC)c1 (stereo not drawn),-20%,0.1,-21,-6,9,
COc1ccc(C(=O)N2CCCC(N3CCN(c4ccccc4OC)CC3)C2)c(OC)n1 (stereo not drawn),·,-1.3,·,7,·,
Cc1ccc(OCCn2ccnc2)c([N+](=O)[O-])c1,·,-1.1,·,-12,·,
COc1ccccc1N1CCN(CCNC(=O)Nc2cccc(C)c2C)CC1,·,2.5,11,4,-33,
CCn1cc(Br)c(C(=O)NN)n1,3%,2.1,-22,64,3,
Cc1nc(-c2ccc([N+](=O)[O-])cc2)c(-c2ccccc2)o1,·,0.4,·,-2,·,
O/N=C1\CCC\C1=C/c1ccco1,-12%,·,-27,-7,-3,
COc1cc(NC(=O)c2ccccc2F)c(OC)cc1NC(=O)CN1CCOCC1,20%,-1.5,·,·,-11,
CC(C)c1ccccc1-n1c(SCc2cc(=O)oc3ccc4ccccc4c23)nnc1-c1cccnc1,-1%,6.5,-22,2,1,
O=C(c1cc(COc2ccc(F)cc2F)on1)N1CCN(C(=O)c2ccco2)CC1,·,-0.8,·,-8,·,
Cc1cc(C)n2nc(SCC(=O)c3cc(C)n(-c4cc(C)on4)c3C)nc2n1,-2%,2.4,-45,10,10,
COc1ccc(-n2nc(C(=O)NCC(=O)NCC3CCCO3)c3ccccc3c2=O)c(OC)c1 (stereo not drawn),0%,-1.5,-23,-2,-5,
C=C(C)C1CC=C(C)/C(=N/NC(=O)c2ccoc2C)C1 (stereo not drawn),4%,1.9,-19,-5,-7,
CSc1ccc(NC(=O)NCCN2CCc3ccccc3C2)cc1,8%,4.1,-26,-8,5,
O=C1c2ccccc2C(=O)c2c1cccc2N1CCN(Cc2ccccc2)CC1,0%,14,-42,100,5,
COc1ccc(-c2nnc(SCc3ccc(C(=O)O)cc3)o2)cc1OC,·,1.0,·,-1,·,
Cc1ccc(OCc2cc(C(=O)N(C)Cc3cc(C4CC4)n[nH]3)no2)cc1C,·,4.7,·,4,·,
CCN(CC(=O)NC(C)C)C(=O)Cc1ccc(C)c(C)c1,4%,-3.1,·,-6,-1,
CCOC(=O)C1CCN(S(=O)(=O)c2cc(Br)cc3c2N(C(C)=O)C(C)C3)CC1 (stereo not drawn),-5%,-2.8,-29,3,5,Arbovirus inh repeat=3
Cn1c(O)c(N=NC(=O)c2ccco2)c2ccccc21,-4%,-1.8,·,7,0,
Nc1nc(N2CCCCC2)c(C=O)c(N2CCCCC2)n1,5%,-5.5,·,-4,9,
Cc1c([N+](=O)[O-])cc(C(=O)NCc2ccc(F)cc2)cc1[N+](=O)[O-],<0.2µM*,9.4,·,100,-10,
O=c1[nH]c2cc(Br)cnc2nc1/C=C(\O)c1ccc(F)cc1,-2%,-0.5,-23,0,0,
O=C(/C=C/c1cccc([N+](=O)[O-])c1)N1CCOCC1,-1%,-1.8,6,-3,-3,
COc1ccccc1C(=O)Oc1ccccc1C(=O)Nc1ccccc1,-5%,·,·,2,-2,
O=C(CC1C(=O)NCCN1Cc1cccc(C(F)(F)F)c1)NCCCOc1cccnc1 (stereo not drawn),·,-4.6,·,1,·,
CCNCC(O)COCC(O)CNCC (stereo not drawn),-11%,-1.6,26,-9,2,
COc1ccc(/C(C)=N/NC(=O)Cn2nc([N+](=O)[O-])cc2C)cc1,8%,-1.2,·,0,·,
COc1ccc(NC(=O)N(CCN2CCCC2)Cc2cc3cc(OC)c(OC)cc3[nH]c2=O)cc1,·,0.5,-41,-8,6,
CSc1nc(-c2ccccc2F)c(C#N)c(=O)n1C,-12%,-2.8,·,3,-6,
Cc1ccc(S(=O)(=O)N2CCN(C)CC2)c2nsnc12,·,-1.5,·,-4,·,
Cc1c(CCO)c(=O)n(C)n1C(=O)c1ccc(Cl)cc1,-6%,24,-52,-4,11,
O=S(=O)(CCN1CCN(C(c2ccccc2)c2ccccc2)CC1)C(F)(F)F,0%,0.9,-46,5,-1,
Cc1ccc(N2C(=O)c3n[nH]c(C)c3C2c2ccco2)cc1 (stereo not drawn),-4%,1.9,-29,3,9,
c1cc(-n2cnnn2)ccc1NC1=NCCC1,3%,1.8,-11,-4,5,
NC(=O)CC(NC(=O)Cc1cccc2ccccc12)c1ccc(N2CCC(Cc3ccccc3)CC2)c([N+](=O)[O-])c1 (stereo not drawn),·,-1.9,·,48,·,
COc1ccc(CNC(=O)/C=C/c2ccc(OCCCF)cc2)cc1OC,11%,0.9,18,45,-7,
O=C(Cn1c2ccc(F)cc2c2nc3n(c(=O)c21)CCS3)NC1CCCC1,·,0.3,·,3,·,
CCOC(=O)c1sc(=S)n(-c2ccccc2)c1SC,1%,2.3,10,-8,2,
Cc1cc(C)nc(N(C#N)Cc2ccccc2Cl)n1,10%,-1.1,-45,-10,-1,Arbovirus inh repeat=-6
CC(=O)Nc1ccc(S(=O)(=O)N2CCC(C(=O)O)CC2)cc1,-3%,·,·,1,6,
Cc1cc(C)nc(SCCc2ccncc2)n1,-4%,1.1,-26,-3,12,
COc1cc(C(=O)N(Cc2ccc(C)o2)C2CCS(=O)(=O)C2)cc(OC)c1OC (stereo not drawn),·,0.9,·,1,·,
CCCCCCn1c(NCC)nc2c1c(=O)n(C)c(=O)n2C,5%,0.1,-6,3,8,
O=C(NCC(=O)N(Cc1ccco1)C(C(=O)NC1CCCC1)c1cccnc1)c1ccco1 (stereo not drawn),4%,2.7,-23,5,4,
CCCN(CC1CC1)C(=S)Nc1ccc(Oc2ccccc2)cc1,?,28,-24,1,3,
